# High-throughput results as filed in PubChem.
# NOMO-1 viab: STK33 inhibitor candidate reducing NOMO-1 cell viability; NOMO-1 AML viability, CellTiter-Glo luminescence, 72 h; inhibition, % (concentration not given with the values); hit rate 7.5% among 37,000; AID 2330;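 active means most replicates above 80%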;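 further: wells of about 30 µL received 25 nL stock; 0% = median of vehicle wells and 100% = reference inhibitor level; the first replicate is given; inactives centre near 10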
# An asterisk follows results filed as active. These rows are one share of the data, so the mix of outcomes need not match the whole.
SMILES,NOMO-1 viab
Cc1ccc([N+](=O)[O-])cc1NC(=O)CSc1nnc(-c2ccncc2)n1C,-18
Cc1noc(C)c1NC(=O)Nc1ccc2c(c1)C(=O)N([C@@H](C)CO)C[C@@H](C)[C@H](CN(C)S(C)(=O)=O)O2,10
COc1ccc(NC(=O)CCC(=O)c2ccc(-c3ccccc3)cc2)cc1,12
CCOC(=O)c1sc(NC(=O)CSc2ccccn2)c(C#N)c1C,18
CC(=O)OCC1=CCCC2[C@@]1(C)CC[C@@H](C)[C@]2(C)CCC(C)CC(=O)O (stereo partly specified),-10
COc1ccc(NC(=O)N(C)C[C@H]2Oc3ccc(NS(=O)(=O)c4ccc(OC)cc4)cc3C(=O)N([C@@H](C)CO)C[C@@H]2C)cc1,4
C[C@@H]1CN([C@H](C)CO)C(=O)c2cc(NC(=O)Nc3ccccc3)ccc2O[C@@H]1CN(C)C(=O)Nc1ccc2c(c1)OCO2,9
CS(=O)(=O)N(CC(=O)Nc1cccc([N+](=O)[O-])c1)c1ccc(F)c(Cl)c1,22
Cc1ccc(N(C(C)C(=O)Nc2ccc(I)cc2)S(C)(=O)=O)cc1C (stereo unspecified),20
CC1CC(=O)C2=C(CCC34OC23C(=O)c2cccc(O)c2C4O)C1 (stereo unspecified),100*

# Quoted from the listing:
# COc1ccc(NC(=O)CCC(=O)c2ccc(-c3ccccc3)cc2)cc1 in NOMO-1 viab is entered as 12
# COc1ccc(NC(=O)N(C)C[C@H]2Oc3ccc(NS(=O)(=O)c4ccc(OC)cc4)cc3C(=O)N([C@@H](C)CO)C[C@@H]2C)cc1 in NOMO-1 viab is entered as 4

# Quoted from the results shown for reference:
SMILES,NOMO-1 viab
Cc1ccc([N+](=O)[O-])cc1NC(=O)CSc1nnc(-c2ccncc2)n1C,-18
Cc1noc(C)c1NC(=O)Nc1ccc2c(c1)C(=O)N([C@@H](C)CO)C[C@@H](C)[C@H](CN(C)S(C)(=O)=O)O2,10
COc1ccc(NC(=O)CCC(=O)c2ccc(-c3ccccc3)cc2)cc1,12
CCOC(=O)c1sc(NC(=O)CSc2ccccn2)c(C#N)c1C,18
CC(=O)OCC1=CCCC2[C@@]1(C)CC[C@@H](C)[C@]2(C)CCC(C)CC(=O)O (stereo partly specified),-10

# Other results:
SMILES,NOMO-1 viab
Cc1ccccc1NC(=O)CCCC(=O)O,-13
COCCCNC(=O)c1cc(-c2ccccn2)nc2ccc(Br)cc12,8
CC(=O)N1C(=S)NC(=O)C1c1ccccc1 (stereo unspecified),44
Cc1noc(C)c1NC(=O)N(C)C[C@@H]1Oc2ccc(NC(=O)C3CCCCC3)cc2CC(=O)N([C@H](C)CO)C[C@H]1C,13
Cc1ccc(S(=O)(=O)N(C)C[C@@H]2Oc3ccc(NC(=O)Nc4ccc5c(c4)OCO5)cc3C(=O)N([C@@H](C)CO)C[C@H]2C)cc1,29
C[C@@H]1CN([C@@H](C)CO)C(=O)c2cc(NC(=O)C3CC3)ccc2O[C@H]1CN(C)Cc1ccncc1,14
CC1(C)C=Cc2c(c(CCO)c3occ(-c4ccc(O)c(O)c4)c(=O)c3c2O)O1,40
C[C@@H]1CN([C@H](C)CO)C(=O)Cc2cc(NS(=O)(=O)c3ccc(Cl)cc3)ccc2O[C@@H]1CN(C)C(=O)Nc1cccc2ccccc12,-2
COc1ccc(CN(C)C[C@H]2Oc3ccc(NS(=O)(=O)c4ccc(OC)cc4)cc3C(=O)N([C@H](C)CO)C[C@@H]2C)cc1,14
Cc1ccc(SCC(=O)Nc2cccc(Oc3ccc4c(c3)C(=O)NC4=O)c2)cc1,-7
O=C(COc1ccc(Cl)cc1)Nc1ncccn1,-3
Cc1noc(C)c1S(=O)(=O)N(C)C[C@@H]1Oc2ccc(NC(=O)C3CC3)cc2CC(=O)N([C@H](C)CO)C[C@@H]1C,25
CNC(=S)NC1CCS(=O)(=O)C1 (stereo unspecified),19
C[C@@H]1CN([C@H](C)CO)C(=O)c2cc(NC(=O)c3ccncc3)ccc2O[C@@H]1CN(C)C(=O)NC1CCCCC1,6
CC(C)(C)NC(=O)CN(c1ccc2c3c(cccc13)CC2)S(C)(=O)=O,30
COc1ccccc1NC(=O)CSc1nnc(-c2cccc3ccccc23)n1-c1ccccc1,29
C[C@@H]1CN([C@H](C)CO)C(=O)Cc2cc(NC(=O)Cn3cnnn3)ccc2O[C@@H]1CN(C)Cc1ccc(C(F)(F)F)cc1,20
CC(C)NC(=O)Nc1ccc2c(c1)C(=O)N([C@H](C)CO)C[C@H](C)[C@H](CN(C)S(=O)(=O)c1ccc(Cl)cc1)OCCCC[C@@H](C)O2,38
CCOC(=O)Cn1c(-c2c(Cl)cccc2Cl)noc1=O,26
O=C(O)CNC(=O)CSc1ccccn1,12
Cc1ccc(S(=O)(=O)Nc2ccc3c(c2)CC(=O)N([C@@H](C)CO)C[C@@H](C)[C@@H](CN(C)CC2CC2)O3)cc1,8
CC(C)NC(=O)N(C)C[C@@H]1Oc2c(NC(=O)NC3CCCCC3)cccc2C(=O)N([C@@H](C)CO)C[C@@H]1C,3
COc1ccc2c(c1)OC(C(=O)c1ccccc1)C2=O (stereo unspecified),20
C[C@H](CO)N1C[C@H](C)[C@H](CN(C)Cc2ccc(C(=O)O)cc2)Oc2ccc(NS(=O)(=O)c3ccc(Cl)cc3)cc2C1=O,-5
C[C@H](CO)N1C[C@H](C)[C@@H](CN(C)C(=O)Nc2ccc3c(c2)OCO3)Oc2ccc(NC(=O)Nc3ccccc3)cc2C1=O,18
CC(C)(C)c1ccccc1OCC(=O)Nc1cccc2ccccc12,92*
C[C@@H]1CN([C@H](C)CO)C(=O)c2cccc(NS(=O)(=O)c3ccc(Cl)cc3)c2O[C@H]1CN(C)C(=O)Nc1ccccc1,-14
C[C@@H]1CCCCO[C@H](CN(C)Cc2ccc(C(=O)O)cc2)[C@@H](C)CN([C@H](C)CO)C(=O)c2cc(NC(=O)Nc3ccc(F)cc3)ccc2O1,-6
Cc1noc(C)c1NC(=O)Nc1ccc2c(c1)C(=O)N([C@@H](C)CO)C[C@H](C)[C@@H](CN(C)S(=O)(=O)c1cn(C)cn1)O2,6
CC1=NN(C(=O)Cc2ccccc2)C(O)(c2ccccc2)C1 (stereo unspecified),25
CSc1cccc(NC(=O)CSc2nnc(-c3cccc(C)c3)o2)c1,-3
C[C@H]1CN([C@@H](C)CO)C(=O)c2cc(NC(=O)C3CCCCC3)ccc2O[C@@H]1CN(C)Cc1ccc(-c2ccccc2)cc1,100*
COc1ccc(OC)c(NC(=O)CN2CCC(C(N)=O)(N3CCCCC3)CC2)c1,-1
COc1cc([N+](=O)[O-])ccc1NC(=O)CSc1nc(C)cc(-c2ccc(Cl)cc2)n1,23
Cc1noc(C)c1NC(=O)Nc1ccc2c(c1)CC(=O)N([C@H](C)CO)C[C@@H](C)[C@H](CN(C)Cc1ccc(Cl)c(Cl)c1)O2,23
C/C(=C\Cc1c(O)cc2oc(C)cc(=O)c2c1O)CO[C@@H]1O[C@H](CO)[C@@H](O)[C@H](O)[C@H]1O,6
O=C(NCC12CC3CC(CC(C3)C1)C2)c1ccccc1,46
COc1ccc(S(=O)(=O)N(C)C[C@H]2Oc3c(NC(=O)c4cnccn4)cccc3C(=O)N([C@H](C)CO)C[C@H]2C)cc1,5
N=C1S/C(=C/c2ccco2)C(=O)N1c1nccs1,37
CCC(C)c1ccc(NC(=O)c2ccc(N(CC)CC)cc2)cc1 (stereo unspecified),120*
C[C@@H]1CN([C@H](C)CO)C(=O)c2cccc(NC(=O)C3CC3)c2O[C@@H]1CN(C)Cc1ccccc1,16
CCC(Sc1nnc(C)s1)C(=O)Nc1ccc(Cl)cc1 (stereo unspecified),-3
COc1ccc(CN(C)C[C@H]2Oc3c(NC(=O)Nc4ccc(F)cc4)cccc3C(=O)N([C@@H](C)CO)C[C@H]2C)cc1,29
CC(C)NC(=O)N(C)C[C@H]1Oc2ccc(NC(=O)CCCN(C)C)cc2C(=O)N([C@@H](C)CO)C[C@H]1C,-5
CNC[C@@H]1Oc2ccc(NC(=O)NC3CCCCC3)cc2C(=O)N([C@H](C)CO)C[C@H]1C,11
Cc1ccc(S(=O)(=O)Nc2ccc3c(c2)CC(=O)N([C@@H](C)CO)C[C@@H](C)[C@@H](CN(C)C(=O)NC(C)C)O3)cc1,-1
Cc1cccc(N(CC(=O)Nc2ccc(I)cc2C)S(C)(=O)=O)c1,8
Cc1noc(C)c1NC(=O)Nc1cccc2c1O[C@@H](CN(C)C(=O)Nc1c(C)noc1C)[C@@H](C)CN([C@@H](C)CO)C2=O,-1
CCOC(=O)c1cnc(Nc2nc3ccccc3o2)nc1CSc1nnc(C)s1,58
CCN1C(N)=C(C#N)C2(CCNCC2)c2nc(C)oc21,4

# (cont.)
SMILES,NOMO-1 viab
CCn1c(SCC(=O)c2cccc([N+](=O)[O-])c2)nnc1-c1ccc(Cl)cc1,16
CC(C)NC(=O)Nc1ccc2c(c1)C(=O)N([C@H](C)CO)C[C@H](C)[C@H](CN(C)C(=O)NC(C)C)O2,-11
COc1ccc(NC(=O)CSc2nc3sc4c(c3c(=O)n2-c2ccccc2)CCC4)c([N+](=O)[O-])c1,20
C[C@H](CO)N1C[C@H](C)[C@H](CN(C)C)Oc2c(NC(=O)c3ccc(-c4nccs4)cc3)cccc2C1=O,3
O=C(O)CCC(=O)N=S(c1ccccc1)c1ccccc1,63
C[C@H](CO)N1C[C@H](C)[C@H](CN(C)C(=O)Nc2ccc3c(c2)OCO3)Oc2ccc(NC(=O)Nc3cccc4ccccc34)cc2C1=O,9
COc1ccc(S(=O)(=O)Nc2cccc3c2O[C@@H](CN(C)CC2CC2)[C@H](C)CN([C@@H](C)CO)C3=O)cc1,2
O=C(O)CSc1nc2ccccc2o1,4
O=C(CSc1n[nH]c(-c2ccc(Cl)cc2Cl)n1)Nc1cccc(C(F)(F)F)c1,28
Cc1ccc(S(=O)(=O)N(C)C[C@H]2Oc3ccc(NC(=O)C4CCCCC4)cc3C(=O)N([C@@H](C)CO)C[C@@H]2C)cc1,22
Cc1ccc(S(=O)(=O)N(C)C[C@@H]2Oc3ccc(NC(=O)Nc4ccc5c(c4)OCO5)cc3CC(=O)N([C@H](C)CO)C[C@H]2C)cc1,-4
COc1ccc(CN(C)C[C@@H]2Oc3ccc(NC(=O)Cn4cnnn4)cc3C(=O)N([C@H](C)CO)C[C@@H]2C)cc1,16
COc1ccc(CN(C)C[C@H]2Oc3ccc(NC(=O)Nc4ccc(F)cc4)cc3CC(=O)N([C@@H](C)CO)C[C@H]2C)cc1,18
CC(=O)c1ccc(NC(=O)CSc2nnc(-c3ccccc3)n2-c2ccccc2)cc1,-2
C[C@@H]1CN([C@@H](C)CO)C(=O)c2cccc(NC(=O)c3ccc(-c4nccs4)cc3)c2O[C@@H]1CN(C)S(=O)(=O)c1ccc(Cl)cc1,34
COc1ccc(-n2c(SCC(=O)Nc3ccc(C(N)=O)cc3)nc3sc4c(c3c2=O)CCCC4)cc1,-5
Cc1ccnc(SCC(=O)n2c3c(c4ccccc42)CC(C)CC3)n1 (stereo unspecified),20
COc1ccc(NC(=O)Nc2cccc3c2O[C@@H](CN(C)C(=O)Nc2ccc(OC)cc2)[C@H](C)CN([C@H](C)CO)C3=O)cc1,10
NC(=O)COc1ccc(C=C2C(=O)c3ccccc3C2=O)cc1,35
Cc1n[nH]c(=S)n(/N=C/C=C/c2ccccc2)c1=O,28

# Laid out differently: results already given.
structure	NOMO-1 viab
NC(=O)COc1ccc(C=C2C(=O)c3ccccc3C2=O)cc1	35
Cc1n[nH]c(=S)n(/N=C/C=C/c2ccccc2)c1=O	28

# (continued)
SMILES,NOMO-1 viab
CN(C)c1nc(Cl)nc(N(C#N)CN2C(=O)c3ccccc3C2=O)n1,105*
C[C@@H]1CN([C@@H](C)CO)C(=O)c2cccc(NC(=O)NC3CCCCC3)c2O[C@@H]1CN(C)S(=O)(=O)c1cn(C)cn1,15
Cc1cc(O)c2c(c1)C(=O)c1cc(OC3OC(COC(=O)CC(=O)O)C(O)C(O)C3O)cc(O)c1C2=O (stereo unspecified),-4
O=S(=O)(Nc1ccccn1)c1cccc(S(=O)(=O)c2ccc(Br)cc2)c1,-1
Cc1ccc(S(=O)(=O)N(C)C[C@H]2Oc3c(NC(=O)c4ccc(-c5nccs5)cc4)cccc3C(=O)N([C@H](C)CO)C[C@@H]2C)cc1,20
C[C@H]1CN([C@@H](C)CO)C(=O)c2cccc(NC(=O)Nc3ccc(F)cc3)c2O[C@@H]1CN(C)C,9
C[C@H]1CN([C@@H](C)CO)C(=O)c2cccc(NC(=O)CCCCCC(=O)Nc3ccccc3N)c2O[C@@H]1CN(C)S(=O)(=O)c1ccc(F)cc1,41
Cc1ccc(Cc2nn3c(C(=O)c4cccs4)nn(-c4ccc(Cl)cc4)c3nc2=O)cc1,37
O=C(O)CCSc1nc(-c2ccccc2)c(-c2ccccc2)[nH]1,-7
C[C@@H]1CN([C@@H](C)CO)C(=O)Cc2cc(NC(=O)Cc3ccccc3)ccc2O[C@@H]1CN(C)S(=O)(=O)c1ccc(F)cc1,11
C[C@H]1CN([C@@H](C)CO)C(=O)c2cccc(NC(=O)c3nc4ccccc4s3)c2O[C@H]1CN(C)Cc1ccc(C(F)(F)F)cc1,50
C[C@@H]1CN([C@@H](C)CO)C(=O)c2cccc(NC(=O)c3ccc(-c4nccs4)cc3)c2O[C@H]1CN(C)Cc1ccc(C(F)(F)F)cc1,99*
COc1cccc(OCC(=O)Nc2cccc(Oc3ccc4c(c3)C(=O)NC4=O)c2)c1,-15
CC(C)NC(=O)Nc1ccc2c(c1)C(=O)N([C@H](C)CO)C[C@H](C)[C@@H](CN(C)C)O2,29
C[C@H]1CN([C@@H](C)CO)C(=O)c2cc(NS(=O)(=O)c3cccs3)ccc2O[C@H]1CN(C)C(=O)Nc1ccc(F)cc1,-8
